Compound activity deposited in PubChem by several laboratories.
UUG fidelity: modulators of yeast start codon fidelity, primary screen, whole organism, S. cerevisiae, single point, plate reader; S. cerevisiae UUG-firefly luciferase reporter, luminescence/redox ratio; AID 602363, 2012; hit rate 0.13% among 350,000; activity score, % at 18.7 µM;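 active means replicate mean at a twofold rise or more, about +100% in these data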;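 further: firefly luciferase made from a UUG start codon reports start codon fidelity; reporter light over untreated wells divided by growth signal over untreated wells; some hits fall short of that in this replicate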
MT1-MMP act inh: blockers of MT1-MMP proenzyme processing, primary screen, HT1080 RFP-PRO-GFP cells, GFP/RFP fluorescence; GFP/RFP ratio fluorescence, overnight; percent of plate control window, DMSO zero; GFP/RFP ratio change, % at 20 µM; hit rate 0.061% among 360,000;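 active means GFP/RFP ratio change of at least 30% with cell ATP level not reduced by more than half and red fluorescence within 50% of control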; further: strong numbers were not always called active
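Material – HT1080 RFP-PRO-GFP cells · Control set – DMSO wells and RFP-L50D-GFP cells · Incubation – overnight cell settling, then overnight compound exposure, 37 °C, 5% CO2 · Compound dosing – single-point 20 µM compound, 1% DMSO · Read-out – GFP/RFP fluorescence ratio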
MT1-MMP act inh RFP: also measured in MT1-MMP act inh; calls as there; RFP signal change, %; measured here: RFP expression control read;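 0 = vehicle wells; hits needed this value within 50% of zero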
An asterisk follows results filed as active. Not all compounds are listed; count on the stated rates, not on these rows.

SMILES	UUG fidelity	MT1-MMP act inh	MT1-MMP act inh RFP
Nc1cccc(N=[N+]([O-])c2cccc(N)c2)c1	-15	6	5
COc1ccc(NC(=O)CN(C)CC(=O)NC2CCCCC2C)cc1 (stereo unspecified)	-9	2	3
COc1ccc(S(=O)(=O)N2CCCCC2)cc1NC(=O)Cc1ccc(Br)cc1	-6	3	-4
Cn1c(=O)c2[nH]c(=O)[nH]c2n(C)c1=O	-21	9	0
NC(=O)c1ccc(-c2nnn(CC(=O)N(C3CCCCC3)C3CCS(=O)(=O)C3)n2)cc1 (stereo unspecified)	-18	-2	0
CCOC(=O)C1=C(COC(=O)c2ccc(Br)c(S(=O)(=O)N3CCOCC3)c2)NC(=O)NC1C (stereo unspecified)	-7	3	-3
CC(=O)N1CCN(c2ccc(NCc3ccc(-c4cccc(Cl)c4)o3)cc2)CC1	-21	3	-5
Cc1cc(Br)ccc1NC(=O)CN(C)C(=O)c1ccccc1OCc1c(C)noc1C	-13	0	3
Oc1cccc2cc(Nc3ccccc3)cnc12	-66	-4	-19
COc1ccccc1NC(=O)COC(=O)c1cc2ccccc2cc1O	-6	3	-1
CC(C)CC1NC(=O)c2cccnc2-n2c1nc1ccccc1c2=O (stereo unspecified)	-7	0	5
COC(=O)c1ccc(CNC(=O)CCNC(=O)c2ccco2)cc1	-4	0	-1
COCCN(Cc1ccc(C)cc1)C(=O)[C@H]1O[C@@H](n2ccc(N)nc2=O)[C@H](O)[C@@H]1O	-5	6	5
O[C@@H]1C[C@H](c2ccc(Cl)cc2)N(Cc2cccs2)C[C@H]1n1cc(-c2ccc(F)cc2)nn1	-7	4	6
CCCCNC(=O)C(C)N(CCN(C)C)C(=O)CCCN1C(=O)NC(c2ccc([N+](=O)[O-])cc2)C(C(=O)OCc2ccccc2)=C1C (stereo unspecified)	36	0	-5
CCCOc1ccc(F)cc1-c1cc(C(=O)NCCOC)[nH]n1	-18	3	-4
CC1Oc2ccc(C#N)cc2N(Cc2ccc(F)cc2)C1=O (stereo unspecified)	-6	3	4
CCOC(=O)C1=CC[C@@H](c2ccccc2)N(S(=O)(=O)c2ccc(C)cc2)[C@H]1c1ccccc1C	-20	-8	-16
C/C(=N\NC(=O)c1cc(C)oc1C)c1ccc(C)c([N+](=O)[O-])c1	-14	0	1
CCCN(CC(=O)Nc1ccccc1C)C(=O)Cc1cccs1	-16	-4	-3
CCOC(=O)c1c(NC(=O)CN2CCN(S(=O)(=O)c3cc(Cl)ccc3Cl)CC2)sc(C(=O)N(C)C)c1C	-6	-5	-12
CC12CCC(=O)N1C(C(=O)NNC(=O)c1ccc(Cl)cc1)CS2 (stereo unspecified)	5	-1	0
O=C(COC(=O)c1ccccc1O)Nc1ccc(N2CCOCC2)cc1	-31	2	0
N#Cc1ccc(NC(=O)CSc2n[nH]c(=O)n2C2CC2)cc1	-12	-3	2

Four entries from above, reformatted:
molecule,UUG fidelity,MT1-MMP act inh,MT1-MMP act inh RFP
O[C@@H]1C[C@H](c2ccc(Cl)cc2)N(Cc2cccs2)C[C@H]1n1cc(-c2ccc(F)cc2)nn1,-7,4,6
CCCCNC(=O)C(C)N(CCN(C)C)C(=O)CCCN1C(=O)NC(c2ccc([N+](=O)[O-])cc2)C(C(=O)OCc2ccccc2)=C1C (stereo unspecified),36,0,-5
CCCOc1ccc(F)cc1-c1cc(C(=O)NCCOC)[nH]n1,-18,3,-4
CC1Oc2ccc(C#N)cc2N(Cc2ccc(F)cc2)C1=O (stereo unspecified),-6,3,4

Continuation:
SMILES	UUG fidelity	MT1-MMP act inh	MT1-MMP act inh RFP
O=C(COc1ccc([N+](=O)[O-])cc1)Nc1ccc2c(c1)CCC2	-13	7	3
O=C(c1cc(-c2cccnc2)nc2ccccc12)N1CCN(S(=O)(=O)c2cccs2)CC1	14	-5	-1
CN(Cc1nc2ccccc2c(=O)[nH]1)C(=O)c1ccccc1OCc1ccc(Cl)cc1	-3	-3	-7
CC(C)N=C(N)N=C(N)Nc1ccc(Cl)cc1	-10	-6	-3
CC1OC1c1ccc(-c2ccc(C3OC3C)cc2)cc1 (stereo unspecified)	1	2	3
COC(=O)c1nn(C)c(=O)[nH]c1=O	-12	-4	4
O=C(COC(=O)CCC1CCCC1)Nc1ccc(F)cc1Cl	-13	-1	1
FC(F)(F)c1ccccc1Cc1c(-c2cccc(Br)c2)nc2ccc(Cl)cn12	-13	-6	-7
CCCNC(=O)c1cc(C2CCCCN2C(=O)c2ccc3c(c2)CCO3)on1 (stereo unspecified)	0	3	4
OCC1OCOC2C(CO)OCOC12 (stereo unspecified)	-14	-4	4
CCC1(c2ccccc2)NC(=O)N(CC(=O)NNC(=O)COc2ccc(Cl)cc2C)C1=O (stereo unspecified)	-2	0	-4
CCN(CC(=O)NCc1cccs1)C(=O)/C=C/c1cc(OC)ccc1OC	-10	2	-1
Cc1ccc2c(=O)n3c(nc2c1)C(CC(C)C)NC(=O)c1cccnc1-3 (stereo unspecified)	3	23	45
C=CC[C@H]1C=C[C@@H](C(C(=O)OC)C(=O)OC)CN1C(C)=O	-8	3	3
N#Cc1ccccc1S(=O)(=O)N1CCN(C(=O)CCNS(=O)(=O)c2ccc(Cl)cc2)CC1	5	-3	-2
CCOc1ccc(S(=O)(=O)N2CCN(C(=O)c3ccc(Cl)c(S(=O)(=O)N4CCOCC4)c3)CC2)cc1	-3	-1	-28
CC1=C(C(=O)N(C(C)C)C(C)C)CC(CC(=O)NC2CCCC2)C(=O)N1CCCN1CCCC1=O (stereo unspecified)	6	0	1
O=C(COC(=O)c1ccc[n+]([O-])c1)Nc1ccc(Cl)cc1[N+](=O)[O-]	-18	0	7
CCN(c1ccccc1)S(=O)(=O)c1cc(C(=O)OC2CCOC2=O)ccc1C (stereo unspecified)	1	1	1
Cc1ccc(NC(=O)CN2C(=O)C(=O)N(C3CCCC3)C2=O)c(Cl)c1	-12	3	5
O=C(N/N=C/c1ccncc1)c1cccc(S(=O)(=O)N2CCCC2)c1	-7	-6	-1
COc1ccc(C2/C=C\CC(NS(=O)(=O)c3ccc(C)cc3)CC(=O)N2Cc2ccccc2F)cc1 (stereo unspecified)	-30	2	-5
Nc1c(C(=O)CSc2nncn2-c2ccccc2)c(=O)[nH]c(=O)n1C1CC1	-18	-2	3
CCCCCCN1C[C@H](O)[C@@H](n2cc(C3CC3)nn2)C[C@@H]1c1ccc(Cl)cc1	-5	3	-1
CCOC(=O)C(CO)NC(=O)C1(NC(C)=O)CCCC1 (stereo unspecified)	-7	0	2
Cc1ccc([C@H]2C(C(=O)O)=CC[C@@H](c3ccc(Cl)cc3)N2S(=O)(=O)c2ccccc2C)cc1	-28	2	-2
O=C(NC(CC(=O)N1CCN(c2ccccc2O)CC1)c1ccccc1)c1ccccc1Cl (stereo unspecified)	8	-1	4
COc1ccc(-n2c(C)cc(C(=O)COC(=O)c3ccc(O)cc3O)c2C)cc1	-7	-10	-29
Nc1c(N(Cc2ccco2)C(=O)c2cccc(Cl)c2)c(=O)[nH]c(=O)n1Cc1ccccc1	-13	-4	-1
Cc1ccc(S(=O)(=O)N2CCN(c3ncnc4ccccc34)CC2)cc1	-5	-6	-30
CCOC(=O)N1CCC(=NNC(N)=O)C1	-8	1	2
COc1cc(/C=C/C(=O)Nc2ccc(S(=O)(=O)Nc3ncccn3)cc2)ccc1OCC#N	-14	1	3
O=C(c1cccc(S(=O)(=O)Nc2ccc(F)cc2)c1)N1CCOCC1	-16	5	2
CCN1C(=O)[C@H]2[C@@H](c3ccc(OC)cc3)N[C@]3(CCCN(Cc4ccc(C)cc4)C3=O)[C@H]2C1=O	-18	26	39
CC(OC(=O)CCN1C(=O)C2CC=CCC2C1=O)C(=O)c1ccc(F)cc1 (stereo unspecified)	-4	-1	1
Cc1ccc(CC2(C)C(=O)Nc3c(Cl)cccc32)cc1 (stereo unspecified)	-7	0	-1
CCSC1OC(C(COC(C)=O)OC(C)=O)C(OC(C)=O)C1NC(C)=S (stereo unspecified)	-39	0	1
COc1cc(S(=O)(=O)Nc2ccccc2N2CCCCC2)ccc1NC(C)=O	-7	1	-6
COc1cccc(CC(=O)Nc2cc(S(=O)(=O)N3CCOCC3)ccc2N2CCN(C)CC2)c1	-14	1	1
COc1cc(C(=O)N2CCCCC2)ccc1OCC(=O)Nc1ccc(F)cc1	3	3	-9
CCCCN1C[C@H](C)[C@@H](CC(=O)NC)C1=O	-20	3	5
COc1ccc(S(=O)(=O)N2CCCCC2)cc1NC(=O)c1ccc(Cl)nc1	-2	3	2
O=C(NC1CC1)c1[nH]c(C(F)(F)F)nc1-c1ccccc1	-13	3	5
COc1ccc(C(=O)NCC(c2ccccc2)N2CCCC2)cc1S(=O)(=O)N1CCOCC1 (stereo unspecified)	-1	4	4
C/C(=N\OCC(=O)OC(C)C(=O)Nc1ccc(C)c(S(=O)(=O)N2CCOCC2)c1)c1ccc2c(c1)OCO2 (stereo unspecified)	0	-3	1
NC(=O)NC(Cc1ccccc1)C(=O)N1CCN(S(=O)(=O)c2ccc(Cl)cc2)CC1 (stereo unspecified)	4	-3	1
O=C(NNC(=O)c1cccc2ccccc12)c1cccc(F)c1	-1	0	-3
Cc1nc(SCc2nc3c([N+](=O)[O-])cccc3[nH]2)c2oc3ccccc3c2n1	32	20	1
COc1cccc(NC(=O)CN(C)C(=O)Cc2c(C)nc3ccccc3c2C)c1	3	-9	-7
CCC1NC(=O)c2cc3ccccc3cc2-n2c1nc1ccc(F)cc1c2=O (stereo unspecified)	7	0	1
CCC1(CC)NC(=O)N(CC(=O)OCC(=O)Nc2ccc(OC(F)(F)F)cc2)C1=O	-20	0	6
CN(c1ccccc1)S(=O)(=O)c1ccc(C(=O)NNC(=O)c2ccccc2F)cc1	4	-2	0
Cc1ccccc1OCCC(=O)Nc1cc(S(=O)(=O)N2CCCCC2)ccc1N1CCN(C)CC1	-15	0	3
O=C(NCc1cccc(C(F)(F)F)c1)c1[nH]c(C(F)(F)F)nc1-c1ccccc1	0	1	-23
COc1ccc(CNC[C@H]2O[C@@H](n3ccc(=O)[nH]c3=O)[C@H](O)[C@@H]2O)cc1	-10	4	3
c1ccc(C2OCCN2c2ccccc2)cc1 (stereo unspecified)	-8	-3	1
CN(c1ccccc1)S(=O)(=O)c1ccc(C(=O)NCc2ccccc2CN2CCCC2)cc1	1	2	1
Cc1cc2c(cc1C)N1C(=O)c3cc4ccccc4cc3NC(=O)C1C(=O)N2 (stereo unspecified)	-17	0	2
Cn1ccc2c(-c3cccc(C=O)c3)cc3c(c21)C1CCC3C1 (stereo unspecified)	-11	2	3
COC(=O)c1cc(Oc2ccc(S(=O)(=O)N3CCOCC3)cc2[N+](=O)[O-])cc(C(=O)OC)c1	-10	4	-2

Brought forward from above: 4 compounds, then new ones.
SMILES	UUG fidelity	MT1-MMP act inh	MT1-MMP act inh RFP
CN(c1ccccc1)S(=O)(=O)c1ccc(C(=O)NCc2ccccc2CN2CCCC2)cc1	1	2	1
Cc1cc2c(cc1C)N1C(=O)c3cc4ccccc4cc3NC(=O)C1C(=O)N2 (stereo unspecified)	-17	0	2
Cn1ccc2c(-c3cccc(C=O)c3)cc3c(c21)C1CCC3C1 (stereo unspecified)	-11	2	3
COC(=O)c1cc(Oc2ccc(S(=O)(=O)N3CCOCC3)cc2[N+](=O)[O-])cc(C(=O)OC)c1	-10	4	-2
CCCCN(c1ccccc1)S(=O)(=O)c1cccc(C(=O)Nc2c(C)n(C)n(-c3ccccc3)c2=O)c1	4	6	-7
CC1=CC(C)C(=O)N(CCN2CCOCC2)C(C)=C1 (stereo unspecified)	-6	-1	-1
Cc1c(Cl)cccc1NC(=O)CNC(=O)C1CCN(C(=O)Nc2ccccc2)CC1	-26	6	7
CCCn1c(SCC(=O)N(C)CC(=O)Nc2ccc(Cl)cc2)n[nH]c1=O	-13	-1	2
COc1ccccc1N1CCN(CC(=O)Nc2ccc(S(=O)(=O)N3CCCCCC3)cc2)CC1	1	-2	-16
Cc1ccc(C)c(NC(=O)[C@@H]2CCCN2S(=O)(=O)c2ccccc2F)c1	16	0	-4
COCCCN1C(=O)C(CC(=O)NCCc2ccccn2)CC(C(=O)N(C(C)C)C(C)C)=C1C (stereo unspecified)	-24	0	4
CCN(c1ccccc1)S(=O)(=O)c1cccc(C(=O)NCC(c2ccc(OC)cc2)N2CCCCC2)c1 (stereo unspecified)	-8	-4	-4
COc1ccc(C(CNC(=O)c2ccc(N3CCCC3=O)cc2)N2CCCC2)cc1 (stereo unspecified)	-15	-2	1
CC1(c2ccc(Cl)cc2Cl)NC(=O)N(CC(=O)NC2CCCCC2)C1=O (stereo unspecified)	9	1	2
COc1cccc(NC(=O)CN(C)CC(=O)c2c(N)n(Cc3ccccc3)c(=O)n(C)c2=O)c1	-5	4	-6
O=C1CCc2cc(S(=O)(=O)NC3CCCCC3)ccc2N1	-1	1	3
O=C(Nc1ccc(N2CCOCC2)cc1)c1cccc2c(-c3ccc(F)c(F)c3)coc12	-16	3	-1
CCCCN(C(=O)c1ccccc1Cl)C(CC(C)C)c1nc2ccccc2[nH]1 (stereo unspecified)	-15	-11	-9
